From PubChem BioAssay
AID504770 = growth inhibitors of E. coli YBA685 in a screen for V. cholerae RctB (chromosome II replication) inhibitors. z-score (test concentration not listed). AID 504770. E. coli YBA685 rctB-dependent plasmid, OD600 growth, 3 h; hits give low values. hit rate 0.27% among 130,000;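 active = z-score under -2 on both plates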;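 note: wells of about 30 µL received 100 nL stock; score is relative to mean and SD of the test wells; the first replicate is given; strong numbers were not always called active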
CapD inh = CapD enzyme inhibition. purified CapD enzyme, fluorescence intensity read-out; hits give low values; some hits fall short of the stated cut. z-score (concentration not given with the values). hit rate 0.23% among 140,000;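 active = z-score under -4 in either of two replicates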;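 note: stock transfer was 100 nL into about 40 µL; score is relative to mean and spread of the plate; one replicate is shown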
* = called active by the depositor; nt = not tested or not shown. The list is partial, so the mix of outcomes need not match the whole.

Every second line gives: AID504770, CapD inh
1	CCN(CC)c1ccc(CNc2ccc(Br)cn2)cc1
  0.25, -0.91
2	CCOC(=O)c1cccc(C(=O)OCC)n1
  -1.1, 0.03
3	COc1ccc(N2CCN(CCN)CC2)cc1
  0.15, -0.47
4	CS(=O)(=O)N1CCc2cc(C(=O)N3CCCC3)ccc21
  0.35, -0.25
5	CN(C)CCCN(CCCN(C)C)C(=O)c1cc2ccccc2n1C
  nt, -0.035
6	CS(=O)(=O)CS(=O)(=O)Nc1cccc(OC(F)(F)F)c1
  0.05, -0.32
7	CC1=C(CC(=O)N2CCCN(C(=O)OC(C)(C)C)CC2)c2cc(F)ccc2/C1=C\c1ccc(S(C)=O)cc1 (configuration not stated)
  nt, -0.45
8	COc1cccc(CNC(=O)CN(C)S(=O)(=O)c2ccc3c(c2)CC(C)N3C(C)=O)c1 (configuration not stated)
  0.85, -0.045
9	CCOC(=O)c1c(NC(C)=O)sc2c1CCCC2
  nt, 6.1
10	O=C1c2ccccc2C(=O)C1C1=Nc2ccccc2NC(c2ccccc2)C1 (configuration not stated)
  0.35, -0.24
11	CS(=O)(=O)c1ccc2nc(NC(=O)CN3C(=O)CCC3=O)sc2c1
  nt, -0.31
12	Cc1c(Cl)c([N+](=O)[O-])nn1CC(=O)Nc1sc2c(c1C#N)CCC(C(C)(C)C)C2 (configuration not stated)
  nt, 0.015
13	CCN(CC)c1nc(=S)nc(NC(C)(C)C)[nH]1
  0.6, 0.53
14	O=C(O)CNS(=O)(=O)c1cccs1
  0.9, nt
15	CCc1ccc(-n2c(N)c(C(=O)Nc3ccccc3OC)sc2=S)cc1
  nt, -0.6
16	O=CN1CCN(S(=O)(=O)c2ccc(F)c(F)c2)CC1
  0.25, nt
17	CCc1cccc2c(C(=O)COC(=O)c3c(C)noc3C)c[nH]c12
  0.15, nt
18	COc1ccc(Cn2c(=O)cnn(C3OC(COC(C)=O)C(OC(C)=O)C(OC(C)=O)C3OC(C)=O)c2=O)cc1Br (configuration not stated)
  nt, -0.51
19	O=C(c1ccc(N2C(=O)C3C4C=CC(C4)C3C2=O)cc1)N1CCN(C(=O)c2ccc(N3C(=O)C4C5C=CC(C5)C4C3=O)cc2)CC1 (configuration not stated)
  nt, 0.18
20	CC1CCN(C(=O)COC(=O)c2ccccc2C(=O)c2ccccc2)CC1
  -0.2, 0.27
21	CC1(C)C(=O)N(Cc2ccccc2)c2ccccc2N1C(=O)c1ccc(Cl)cc1
  nt, -0.47
22	O=P1(Nc2ccc(Br)cc2)CC=CC1
  -0.75, 0.095
23	CC(C)NC(=S)N1CCN(c2ccc(N3CCOCC3)nn2)CC1
  0.25, 7.6
24	COC(=O)c1ccccc1Oc1ccccc1OC
  -0.3, -0.07
25	CCCn1c(C)cc(C(=O)CN2C(=O)NC3(CCCCCC3)C2=O)c1C
  -0.7, nt
26	Cn1nc(CC#N)c(C#N)c1N
  -0.95, -0.33
27	COc1cccc(C2CC(=O)NC(NC(=O)c3cccc(Cl)c3)=N2)c1OC (configuration not stated)
  -0.2, 0.15
28	Cc1ccc(/C=C2/Sc3ccc(C(=O)NCCN4CCOCC4)cc3NC2=O)cc1
  1.5, 74
29	CC(C)/C=C1\CC/C(=C\c2ccccn2)C1=O
  -0.3, -1.6
30	COCn1c(=O)[nH]c2ccccc21
  -0.25, nt

Quoted from the listing:
Result of #20 in AID504770: -0.2
Result of #19 in CapD inh: 0.18
Result of #4 in AID504770: 0.35
Result of #13 in CapD inh: 0.53
Result of #11 in CapD inh: -0.31

The results go on.
Every second line gives: AID504770, CapD inh
31	O=C(NCC(=O)N1CCN(c2ccccc2)CC1)c1ccccc1Cl
  nt, 0.26
32	CC(=O)c1cc(Cl)cc(Cl)c1OC(=O)c1c(-c2c(Cl)cccc2Cl)noc1C
  nt, -0.58
33	O=C(Nc1ccc(S(=O)(=O)Nc2ncccn2)cc1)c1sc2ccccc2c1Cl
  nt, 0.075
34	CCOC(=O)/C=C1\SCC(=O)N1Cc1nc(N)nc(Nc2ccccc2C)n1
  -0.7, nt
35	Cc1ccc(C=Nc2ccccc2Br)o1
  0.85, 0.33
36	Cc1cccc(Nc2nc3ccccc3nc2-n2nc(C)cc2C)c1
  0.95, 0.71
37	O=C(O)c1ccc(-n2cnc3ccccc32)cc1
  0.2, nt
38	COc1ccc(C(=O)COC(=O)c2ccc3c(c2)OCCO3)cc1
  nt, 0.13
39	Nc1nc(CCOc2ccc(F)cc2)cs1
  -1.2, nt
40	CC(C)COC(=O)/C=C/c1ccccc1
  1.9, -0.4
41	CC(C)(C)C1NC(C(=O)O)CS1 (configuration not stated)
  -1.4, -0.045
42	COc1ccccc1C(=O)N/C(=C\c1ccccc1)C(=O)O
  0.2, -0.34
43	COc1c(Cl)cc(C(=O)N2N=N2)cc1Cl
  0.3, -0.29
44	CSc1nnc(C(C)(C)C)c(=O)n1/N=C/c1c(O)ccc2ccccc12
  -0.35, -0.17
45	COc1ccc(C(=O)ON=C2CSC(C)SC2)cc1 (configuration not stated)
  -0.3, 0.69
46	O=C(NC(=O)c1ccccc1)Nc1ccccc1
  -0.2, nt
47	COC(=O)c1cccc(OCC(O)CNC2CCN(Cc3ccccc3)CC2)c1 (configuration not stated)
  -0.6, nt
48	CC(CCc1ccccc1)NC(=O)CN1CCN(S(=O)(=O)c2cccs2)CC1 (configuration not stated)
  0.8, nt
49	CCN(c1cccc(C)c1)S(=O)(=O)c1ccc2[nH]cc(C(=O)NCCc3ccccc3)c(=O)c2c1
  -0.55, -0.04
50	CCNC(=O)N(Cc1ccccc1)C1CC(C)(C)n2cccc21 (configuration not stated)
  nt, -0.24
51	COCC(C)NCc1cccc(Oc2ccccc2)c1 (configuration not stated)
  -0.1, nt
52	COc1ccc2c(c1)[C@@]1(C)CCC[C@](C)(CO)C1CC2 (some centres not stated)
  0.05, 0.15
53	CCN(CC)CCN1C(=O)c2ccccc2NC1c1ccc(Br)cc1 (configuration not stated)
  -0.05, -0.71
54	COc1ccc(C(=O)Oc2c(C)occc2=O)cc1OC
  -0.5, -0.02
55	O=[N+]([O-])/C(C(Cl)=C(Cl)Cl)=C(\Nc1ccccc1)SCc1ccccc1
  nt, -1.4
56	Cc1cc(NC(=O)CSC2=NN3CCCC(=O)N=C3S2)no1
  -0.3, nt
57	N#CC(C#N)=CN1CCC(C(=O)c2ccccc2)CC1
  -0.45, 0.07
58	CCNc1nc(NCC)n2c(SCC(=O)N(c3ccccc3)c3ccccc3)nnc2n1
  2.5, -0.045
59	O=C1N(CN2CCN(c3ccccc3)CC2)c2ccccc2C12OCCCO2
  nt, 0.14
60	O=C(Nc1ccc(Cl)c(Cl)c1)N1CCC(O)CC1
  0.45, 0.96

Reformatted field by field: part of the list above.
47. COC(=O)c1cccc(OCC(O)CNC2CCN(Cc3ccccc3)CC2)c1 (configuration not stated)
- AID504770: -0.6
- CapD inh: nt

43. COc1c(Cl)cc(C(=O)N2N=N2)cc1Cl
- AID504770: 0.3
- CapD inh: -0.29

Next section.
Every second line gives: AID504770, CapD inh
61	CC1=C(C(=O)c2ccccc2)C(c2ccccc2C)NC(=O)N1 (configuration not stated)
  1.1, nt
62	COc1cc(/C=C2\C(=O)NC(=O)N(c3ccccc3)C2=O)ccc1OCc1ccc(C(=O)O)cc1
  nt, 1
63	O=C(NCC1CCCO1)C1c2ccccc2C(=O)N1C1CCCCCC1 (configuration not stated)
  0, -0.18
64	CC(COC(=O)NNC(=O)/C=C/c1ccc(F)cc1Cl)c1ccccc1 (configuration not stated)
  nt, 15
65	C=CCNc1nnc(SCC(=O)N2CCC(C(N)=O)CC2)s1
  -0.25, nt
66	COc1ccc(C2Nc3cc(C)ccc3O2)cc1OC (configuration not stated)
  -0.8, 1
67	O=C(OCc1nc(-c2ccc(Cl)cc2)cs1)N1CCN(c2cnccn2)CC1
  nt, 70
68	COC(=O)c1sccc1N/C=C(\C#N)C(=O)C1CC1
  nt, 0.41
69	O=C(CSc1nnc(Cc2cc(=O)[nH]c(=O)[nH]2)n1-c1ccccc1)NCc1ccco1
  0.45, nt
70	O=C(O)/C=C/C(=O)Nc1ccc(-n2nccc2C(F)(F)F)cc1
  -0.4, 0.19
71	Cc1ccc(NS(=O)(=O)c2cc(-c3cc(C)no3)ccc2C)nc1
  0.75, 128
72	Cc1cc(C(=O)COC(=O)/C=C/c2ccc(S(=O)(=O)N3CCOCC3)cc2)c(C)n1C
  -0.25, nt
73	O=C(c1ccc(-n2c(=S)[nH]c3ccccc3c2=O)cc1)N1CCC(O)(c2cccc(C(F)(F)F)c2)CC1
  nt, 0.27
74	CCc1nc(SC)c(C#N)c2c1CCCC2
  -0.05, 0.78
75	CCOC(=O)N1CCN(Cc2nnc(-c3cccc(Br)c3)o2)CC1
  -0.5, -0.035
76	CCCCC1(O)CCN(Cc2ccccc2)CC1
  -0.45, -0.22
77	O=C(CN1CCCCCCC1)N/N=C/c1cccs1
  -0.8, -0.17
78	CN1c2ccccc2-c2nc3ccccc3n2C1c1ccccc1 (configuration not stated)
  0.15, 0.27
79	COc1cccc(NC(=O)c2cnccc2C(F)(F)F)c1
  -0.7, 0.8
80	O=c1ccc(-c2nc3ccccc3[nH]2)n[nH]1
  0.8, 0.46
81	COc1cc(/C=C2\SC(=S)N(NC(=O)c3ccncc3)C2=O)ccc1OCc1ccccc1Cl
  nt, -0.14
82	O=C(c1ccc(Cl)cc1)N1CCN(c2nc3ccccc3s2)CC1
  nt, 0.62
83	Cc1ccc(-c2cn3c(n2)CCC3)cc1
  -0.35, 3
84	COc1ccc(NC(=O)CSc2nc3c(cc2C#N)CCCCC3)cc1
  nt, -0.15
85	CCOC(=O)c1sc2nc(CN3CCC(C)CC3)[nH]c(=O)c2c1C
  -0.3, nt
86	CC(C)N(C(=O)C[n+]1cccc(/C=N/O)c1)C(C)C
  -1, 0.53
87	CCOc1ccc(OCC)c(NC(=O)CN(C)S(=O)(=O)c2ccc3nc(C)sc3c2)c1
  0.6, 0.095
88	CC(C)CC(=O)NCc1ccc2[nH]c3c(c2c1)CCCC3
  0.45, 0.72
89	S=c1[nH]c2cc(Cl)c3cccnc3c2o1
  0.7, -0.36
90	CC(C)=CC1C(CNC(=O)CC(CC(=O)C2CC2)c2ccc(Br)cc2)C1(C)C (configuration not stated)
  nt, -0.3
91	CCOc1ccc2[nH]c(=O)c(C(c3nnnn3CCOC)N3CCc4ccccc43)cc2c1 (configuration not stated)
  -0.65, 0.39
92	CC(C)S(=O)(=O)/C(C#N)=C/NN1CCOCC1
  0.25, -0.3
93	Cc1onc(-c2ccccc2Cl)c1C(=O)NCCSCc1ccco1
  nt, 0.055
94	CCOc1ccc(NC(=O)C2CC(=O)N(CC)C(=Nc3cccc(Cl)c3)S2)cc1 (configuration not stated)
  nt, 0.055
95	Cc1cc(NC(=O)c2ccc(COc3ccc(Cl)c(C)c3)o2)no1
  0.45, 82
96	CC1(C)CC(N(Cc2cccs2)C(=O)c2ccco2)CCO1 (configuration not stated)
  -0.15, -0.39
97	C=CCn1c(SCC2CNC(c3ccc(N(C)C)cc3)O2)nnc1C1CCCCC1 (configuration not stated)
  -0.35, nt
98	COC(=O)c1c(-c2c(Cl)cccc2Cl)noc1C(=O)N/N=C/c1ccccn1
  -0.15, 0.12
99	O=C(Cc1c[nH]c2ccccc12)N/N=C/c1ccc(OCc2ccccc2)cc1
  nt, -0.49
100	C=CCN1C(=O)N(c2ccccc2)C(=O)C1CC(=O)Nc1ccc(CC)cc1 (configuration not stated)
  0.95, -0.95
101	CCCN1CCN(C(=O)c2c(C)nn(Cc3ccc(C)cc3)c2Cl)CC1
  -0.05, nt
102	CCc1cc2c(NCC3CCCO3)nc(C)nc2s1 (configuration not stated)
  -0.1, 10
103	COc1cccc(CNC(=O)Cc2cccc(OC)c2)c1
  0.05, nt
104	Cc1nn(Cc2ccccc2Cl)c(C)c1C(=O)OCC(=O)Nc1sccc1C(N)=O
  0.45, nt
105	O=c1c2ccccc2nc(SC(F)F)n1-c1ccccc1
  0, nt
106	C=CCNC(=O)c1ccc2c(c1)C1C3CCC(C3)C1C(c1ccccc1)N2 (configuration not stated)
  -0.05, 0.055
107	Cc1ccc(/C=C/C(=O)Nc2sc3c(c2C#N)CCCC3)cc1
  -0.15, 1.8
108	O=C(CC(NCc1ccco1)C(=O)O)Nc1cccc(Cl)c1 (configuration not stated)
  -0.4, nt
109	O=C(Nc1ccccc1C(=O)O)c1ccccc1
  -0.1, -0.53
110	O=C(/C=C/c1ccc(S(=O)(=O)N2CCCCCC2)cc1)N1CCN(C(=O)c2ccccc2)CC1
  -0.5, nt
111	CCOC(=O)C1=C(N)n2c(s/c(=C\c3ccncc3)c2=O)=C(C(=O)OCC)C1c1ccncc1 (configuration not stated)
  nt, 0.48
112	COCn1nnc2ccccc21
  1.1, 0.43
113	CCc1ccc(N2C(=O)N(CC(=O)N3CCCCCC3)c3ccccc3S2(=O)=O)cc1
  0.9, -0.17
114	Cc1ccc(/C=C/C(=O)OCC(=O)c2cc(C)n(CC3COc4ccccc4O3)c2C)o1 (configuration not stated)
  -0.8, nt
115	CC(C)NC(=O)n1nccc1-c1cc(-c2ccccc2)no1
  -0.15, 0.23
116	CC(/C=C/c1ccco1)=N\NC(=O)Cc1cccc2ccccc12
  -0.35, -1.2

One compound at a time (already shown).
Results for `COc1cccc(CNC(=O)Cc2cccc(OC)c2)c1` : AID504770: 0.05; CapD inh: nt
Results for `CCOc1ccc(NC(=O)C2CC(=O)N(CC)C(=Nc3cccc(Cl)c3)S2)cc1` (configuration not stated) : AID504770: nt; CapD inh: 0.055
Results for `CC(/C=C/c1ccco1)=N\NC(=O)Cc1cccc2ccccc12` : AID504770: -0.35; CapD inh: -1.2
